Source: PubChem
rRNA inh HTS = reduced GFP signal of wild-type E. coli, primary screen, bacterial rRNA inhibitor project, GFP/RFP fluorescence, OD600, single point; AID 720706, 2013; GFP signal change (wild-type ribosome), % (test concentration not listed); E. coli WT GFP vs humanized-ribosome RFP mutants, 24 h; hits give low values; DMSO median 0, no signal -100; 1.6% of 350,000 active;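 active = significant combined selectivity score with lowered wild-type GFP, culture density cut under 30%, mutant RFP and density less affected; inactive = any of these conditions unmet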; also: one replicate is shown; some compounds called inactive have numbers as strong as hits
HNF4A DNA FP = change in binding of human HNF4A to DNA, primary screen, biochemical, fluorescence polarization, FITC-DNA; Hepatocyte nuclear factor 4-alpha (Homo sapiens), P41235; 1 h; activity change, % at 10 µM; 0.3% of 360,000 active; in the data active = activity change above about 30%, passing the limit was not always enough;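 also: controls were the assay level and a saturating level of protein; the project sought stronger binding though the title names inhibitors; some compounds called inactive have numbers as strong as hits; positive values seem to mean higher polarization but the record does not say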
UCH37 inh = inhibitors of human UCH37 deubiquitinase, primary screen, biochemical, Ub-AMC cleavage, fluorescence; purified proteasome/UCH37; AID 588478, 2011; inhibition, % (concentration not given with the values); Ubiquitin carboxyl-terminal hydrolase isozyme L5 (Homo sapiens), Q9Y5K5; 0.33% of 330,000 active;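 active = mean of two replicates above 20%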;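 also: 0% = compound-free wells with enzyme and 100% = wells lacking proteasome; stock transfer was 100 nL into about 20 µL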
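assay system = human UCH37 enzyme supplied as purified proteasome complex | amount = proteasome at 0.15 nM in the dispensed enzyme solution | schedule = 30 min compound-proteasome preincubation then 25 min substrate reaction, room temperature | measured by = fluorescence, ex 355 nm, em 460 nm | benchmarks = no-proteasome wells (full inhibition) and compound-free wells (no inhibition)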
E coli growth = E. coli growth inhibition, primary screen, OD600. Escherichia coli growth, 23 h; hits give low values. OD600 absorbance (test concentration not listed). AID 1053175, 2014. 0.21% of 330,000 active;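 active = OD600 absorbance below the run mean of sample wells minus 3.6 SD, in any replicate, cut at about 0.56 in these data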;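 also: stock transfer was 300 nL into about 60 µL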
FGF22 binding = binders of human FGF22 protein, primary screen, FGF22 synaptogenesis inhibitor project, biophysical, thermal shift, single point; Fibroblast growth factor 22 (Homo sapiens), Q9HCT0; 1.5% of 340,000 active; calls only at 9.99 µM; recombinant FGF22 thermal shift, SYPRO orange fluorescence; percent of sucrose octasulfate shift, DMSO zero; AID 651658, 2012;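 active = melting point raised past a set limit in the mean and every replicate; inconclusive = no clear call; three in four hits are not shown here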
Target sequence (Q9HCT0 whole entry, looked up): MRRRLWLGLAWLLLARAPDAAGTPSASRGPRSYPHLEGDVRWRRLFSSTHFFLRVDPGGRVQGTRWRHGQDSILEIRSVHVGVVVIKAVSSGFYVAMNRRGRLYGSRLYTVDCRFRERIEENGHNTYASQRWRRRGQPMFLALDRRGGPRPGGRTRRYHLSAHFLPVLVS
Beta2AR agonist = beta2AR agonists driving receptor internalization, primary screen, cell-based, FAP fluorogen, flow cytometry. Beta-2 adrenergic receptor (Homo sapiens), P07550. Am2.2-beta2AR cells; reference of the scale not given here. response, % (concentration not given with the values). 0.43% of 340,000 active;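 active = response above a set limit, near 3 SD of response in nonfluorescent compounds, cut at about 42% in these data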;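 also: stock transfer was 100 nL into about 11 µL; a reference agonist was the positive control; negative values mostly stem from fluorescent compounds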
Target sequence (P07550 whole entry, looked up): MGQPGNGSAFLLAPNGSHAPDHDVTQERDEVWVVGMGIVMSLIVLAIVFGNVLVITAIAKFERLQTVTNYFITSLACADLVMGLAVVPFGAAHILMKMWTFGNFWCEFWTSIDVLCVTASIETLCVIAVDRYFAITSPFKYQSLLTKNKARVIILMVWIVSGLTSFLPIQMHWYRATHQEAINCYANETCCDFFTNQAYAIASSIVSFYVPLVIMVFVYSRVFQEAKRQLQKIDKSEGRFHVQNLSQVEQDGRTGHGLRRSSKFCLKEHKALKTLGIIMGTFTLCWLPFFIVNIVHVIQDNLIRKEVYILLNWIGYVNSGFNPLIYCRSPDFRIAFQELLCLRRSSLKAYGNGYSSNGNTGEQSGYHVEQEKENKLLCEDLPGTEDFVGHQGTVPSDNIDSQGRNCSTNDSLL
ALR inh = inhibitors of human ALR sulfhydryl oxidase, primary screen, biochemical, H2O2 detection, HRP-luminol luminescence, single point | FAD-linked sulfhydryl oxidase ALR (Homo sapiens), P55789 | purified ALR, DTT oxidation | inhibition, % (concentration not given with the values) | 3.8% of 290,000 active | AID 485317, 2010;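 active = mean and each replicate at 75% or more; inconclusive = only one of the two met; inactive = neither met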;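 also: stock transfer was 7.5 nL into about 7.5 µL; 0% = neutral wells and 100% = wells with inactivated enzyme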
Target sequence (P55789 whole entry, looked up): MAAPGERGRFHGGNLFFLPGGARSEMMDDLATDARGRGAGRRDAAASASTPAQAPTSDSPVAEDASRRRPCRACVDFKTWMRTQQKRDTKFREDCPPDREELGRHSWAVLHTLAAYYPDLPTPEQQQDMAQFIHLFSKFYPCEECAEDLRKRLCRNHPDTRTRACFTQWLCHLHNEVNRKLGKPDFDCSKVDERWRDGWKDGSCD
rRNA inh HTS OD600 = second read-out of rRNA inh HTS, no call of its own (marks repeat the call); OD600 change, %; measured here: OD600 growth;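 optical density of the mix in the first replicate; 0 = DMSO median and -100 = no signal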
rRNA inh HTS RFP = also measured in rRNA inh HTS; calls as there; RFP signal change, %; measured here: RFP humanized mutant strains;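 first replicate; 0 = DMSO median and -100 = no signal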
Starred values were filed as active, the others as inactive; i = inactive; ? = inconclusive; · = not tested or not shown.

canonical_smiles	rRNA inh HTS	rRNA inh HTS OD600	rRNA inh HTS RFP	HNF4A DNA FP	UCH37 inh	E coli growth	FGF22 binding	Beta2AR agonist	ALR inh
CC(=O)Nc1ccc(S(=O)(=O)N2CCN(C(=O)C3COc4ccccc4O3)CC2)cc1 (stereo not drawn)	17	12	-2.4	2.5	1.9	0.73	i	-1	-11
O=C(Cn1nnc(-c2ccc(OCc3ccccc3F)cc2)n1)N1CCOCC1	·	·	·	-1.1	1.7	0.72	·	-12	-4
Cn1cc(CN2CCN(c3ccc(Cl)cn3)CC2)c(-c2ccccc2F)n1	-8	-8	3.7	3.0	1.1	0.68	i	-21	-5
COC(=O)[C@@]1(Cc2ccccc2)[C@H]2C(=O)N(Cc3ccccc3)C(=O)[C@H]2[C@H]2CN(C)C(=NCc3ccccc3)N21	-7	-7	-1.6	5.9	0.1	0.68	i	-3	·
O=C(NCCN1CCOCC1)c1ccccc1-c1ccccc1	·	·	·	-2.0	0.0	0.71	·	-6	-1
CCOC(=O)C1(Cc2ccc(Cl)cc2)CCN(C(=O)C2CCCO2)CC1 (stereo not drawn)	-24	-23	-4.8	-1.9	0.4	0.68	i	-1	-8
Oc1ccc(/C=N/N2CCCCC2)cc1O	10	19	2.0	1.0	·	·	i	4	99*
Clc1nn2cnnc2c2ccccc12	16	5	0.7	-1.5	-1.5	0.65	i	0	23
CCOCCCNC(=O)C1CCN(C(=O)Nc2ccc(Cl)cc2)CC1	·	·	·	2.8	4.7	0.67	·	-2	-11
CC1CCN(C(=O)COC(=O)C23CC4CC(CC(O)(C4)C2)C3)CC1	6	10	-1.1	2.2	-1.2	0.69	i	-5	·
O=C(c1ccc(S(=O)(=O)N2CCCCC2)cc1)c1nnc(-c2ccc(Cl)cc2)o1	·	·	·	-2.7	4.9	0.74	·	-10	·
CCOc1ccc(CN(C)CC(=O)Nc2cccc(S(=O)(=O)N(C)c3ccccc3)c2)cc1	-16	-12	-1.7	-1.4	0.3	0.7	i	-5	-31
CC(OC(=O)C1CCCCC1)C(=O)Nc1cccc(Cl)c1 (stereo not drawn)	-29	-24	10	-1.9	3.6	0.68	i	9	4
Cc1cc(CCNC=O)c(C)c2c1oc1ccccc12	-6	-20	-0.3	1.3	·	·	i	4	·
COc1ccccc1OCC(=O)OCn1c(SC)nnc(C)c1=O	·	·	·	-1.5	-0.4	0.69	·	0	30
O=C(COC(=O)C12CC3CC(CC(O)(C3)C1)C2)NC(=O)NCc1ccco1	·	·	·	-0.9	0.9	0.72	·	26	-19
CC1CCCCN1CCNC(=O)C1CCCN(S(=O)(=O)c2cccc3nsnc23)C1 (stereo not drawn)	6	4	-3.0	4.6	2.4	0.69	i	7	-3
CC(C)NC(=O)CNc1ccc(C(F)(F)F)cc1[N+](=O)[O-]	10	7	-2.8	-3.8	1.6	0.71	i	0	-2
Fc1cccc(Cl)c1CN1CCN(c2nc3ccccc3s2)CC1	-21	-43	6.6	5.0	-1.6	0.67	i	18	-4
CC1CN(C(=O)COc2ccc3ccccc3c2)CC(C)O1 (stereo not drawn)	1	9	6.5	0.0	-1.3	0.71	i	1	·
CC(C)(CNC(=O)Cc1ccc(NS(=O)(=O)c2cccc(C(F)(F)F)c2)cc1)N1CCOCC1	7	3	2.7	3.0	-3.4	0.7	i	-1	2
CCCCCN(C(=O)CCC(=O)OCc1ccccc1C)c1c(N)n(CCCC)c(=O)[nH]c1=O	4	11	-1.3	0.2	1.0	0.61	i	-4	-13
CCN(CC)C(=O)CCC(=O)Nc1ccc(C(=O)OC)cc1	·	·	·	3.2	-1.5	0.71	·	5	-9
O=C(COC(=O)CCc1nc2ccccc2c(=O)[nH]1)NC(=O)NC1CCCC1	·	·	·	1.6	0.7	0.7	·	-2	7
CCCS(=O)(=O)N1CCN(C(=O)COc2ccc(OC)cc2)CC1	·	·	·	5.6	-0.4	0.71	·	3	·
CN(C)c1ccc(C=Nc2ccccc2C(N)=O)cc1	·	·	·	2.0	-45	0.68	·	-3	0
Cc1nc(C)c(C(=O)C2=C(O)C(=O)N(CCN3CCOCC3)C2c2cccnc2)s1 (stereo not drawn)	·	·	·	-0.1	16	0.76	·	2	-1
CCOC(=O)CN1C(=O)/C(=C2\SC(=S)N(NC(=O)c3cccnc3)C2=O)c2ccccc21	12	16	1.5	-1.8	1.3	0.69	i	2	1
COc1cc(C(=O)NCCc2cn3ccc(C)cc3n2)cc(OC)c1OC	-5	6	-0.8	1.6	0.7	0.76	i	13	-13
Oc1oc(-c2ccco2)nc1C=Nc1ccccc1	-9	3	-0.3	2.2	9.0	0.63	i	1	66
C[n+]1cccc(/C=N/Nc2nc(Cl)c(C#N)c(Cl)c2Cl)c1	-50	-46	-11	-1.9	·	·	i	-13	·
O=C(CSc1ccc(S(=O)(=O)N2CCOCC2)cn1)Nc1ccc(F)c(F)c1	1	11	3.1	-5.9	4.2	0.68	i	-7	·
CCCOC(=O)c1c(N)sc2c1CCC2	·	·	·	1.5	2.4	0.73	·	10	40
Oc1cccc(C=NCc2ccccc2)c1O	·	·	·	-4.4	0.7	0.64	·	15	-6
CC(=O)Nc1nc(=S)n(-c2ccccc2)[nH]1	·	·	·	2.0	2.1	0.63	·	3	?
Nn1c(SCC(=O)NC2CCCCC2)nnc1-c1ccc(Cl)cc1	·	·	·	-0.5	2.0	0.68	·	-4	-15
Cc1ccc(C)c(N2CCN(S(=O)(=O)c3ccc4c(c3)CCN4C(=O)CCC(=O)O)CC2)c1	6	13	0.5	-1.0	-0.6	0.8	i	6	48
O=C(NCN1CCc2ccccc2C1)c1ccccc1	·	·	·	4.4	0.2	0.67	·	11	-15
COc1cccc(CNn2cnnc2)c1OCc1ccccc1F	·	·	·	-1.1	-0.8	0.68	·	-1	0
COc1cccc(OC)c1C(=O)NC(=S)N1CCCCC1c1cccnc1 (stereo not drawn)	·	·	·	0.0	2.5	0.72	i	2	·
COc1ccc(-n2c(N)c(C(=O)NCc3cccnc3)sc2=S)cc1	·	·	·	-2.5	9.5	0.72	·	3	-6
O=C(C#Cc1ccccc1)Nc1cccc(F)c1	-28	-31	-14	-0.2	0.0	0.62	i	3	97*
CC(C)(C)c1ccc(-n2ncc3c2CCCC3NC(=O)C2=NNC(=O)CC2)cc1 (stereo not drawn)	5	9	1.3	-2.9	-0.6	0.66	i	-2	-1
CCOC(=O)C1=CCN(S(=O)(=O)c2ccccc2Cl)C1c1cccc(F)c1 (stereo not drawn)	-16	-43	-9.2	-1.2	·	·	·	·	·
Fc1ccccc1N1CCN(C2CCN(Cc3c[nH]c4ccccc34)CC2)CC1	·	·	·	1.8	-2.3	0.64	·	11	-8
Cc1ccccc1C(=O)Oc1cccc2c(O)cccc12	0	8	-0.5	1.7	5.0	0.62	i	16	37
CCCCCCCCCCOC(=O)C[N+](C)(C)C/C=C(/C)Cl	6	0	-0.2	1.2	0.6	0.62	i	7	0
CCC1CC(/C(C)=N/NC(N)=O)OC1=O (stereo not drawn)	19	14	-0.8	0.2	·	·	i	-4	1
COc1cccc(CNC(=O)C2CC(=O)N(c3ccc4c(c3)OCCO4)C2)c1 (stereo not drawn)	7	1	-0.2	-0.8	2.1	0.63	i	1	0
O=C(COC(=O)c1cccnc1Cl)NCc1ccc2c(c1)OCO2	·	·	·	-0.4	1.4	0.7	·	-8	0

Later entries
canonical_smiles	rRNA inh HTS	rRNA inh HTS OD600	rRNA inh HTS RFP	HNF4A DNA FP	UCH37 inh	E coli growth	FGF22 binding	Beta2AR agonist	ALR inh
Cc1[nH]n(-c2ccccc2)c(=O)c1Sc1ccc(Cl)cc1	·	·	·	-0.2	3.7	0.68	·	-11	22
CCN1CCc2c(sc(NC(=O)CN3C(=O)c4ccccc4C3=O)c2C(N)=O)C1	14	12	1.6	-0.5	3.2	0.66	·	3	-10
CC1(C)OC(=O)CC1C(=O)NCc1ccccc1 (stereo not drawn)	·	·	·	-2.6	1.4	0.71	·	9	-15
O=C(COc1ccc(Cl)cc1)NCCNC(=O)c1ccccn1	4	-1	0.7	55*	0.1	0.71	i	-1	1
Cc1cc2c(C)nc(-c3ccccc3)nc2o1	·	·	·	-5.5	-0.5	0.72	·	-4	-12
O=C(O)CCC(NC(=O)c1cncc(O)c1)C(=O)O (stereo not drawn)	·	·	·	-2.2	-14	0.66	·	3	-3
COc1ccc(CC(=O)Nc2cc(S(=O)(=O)N3CCOCC3)ccc2N2CCCC2)cc1OC	3	-3	4.4	0.5	1.7	0.64	i	0	10
CCN(CCN(C)C)C(=O)C1CCN(S(=O)(=O)c2c(C)noc2/C=C/c2ccccc2F)CC1	-4	0	11	-2.6	5.0	0.68	i	4	-7
Cc1ccc(NC(=O)c2ccc([N+](=O)[O-])o2)c(C)c1	-33*	-11*	-4.1*	0.0	7.1	0.63	i	9	-27
COc1cccc(NC(=S)Nc2cccc3ccccc23)c1	0	10	-0.7	3.1	0.5	0.69	i	4	-45
Cc1ccccc1NC(=O)OCc1cccnc1Sc1ccc(Cl)cc1	·	·	·	4.9	4.3	0.79	·	-17	-2
CCOC(=O)C1C(=O)CC(C)(O)C(C(=O)OCC)C1c1ccc([N+](=O)[O-])cc1 (stereo not drawn)	7	7	4.4	-2.2	1.6	0.63	i	4	·
O=C1C2CCC(C(O)C2)N1Cc1ccccc1 (stereo not drawn)	·	·	·	-0.2	3.8	0.69	·	0	0
Cc1c(O)cc2c(c1O)C(=O)CC(c1ccc(O)cc1)O2 (stereo not drawn)	·	·	·	9.9	2.5	0.75	i	-3	13

In the list so far, 5 contain an aryl thioether with sulfur outside any ring:
canonical_smiles	rRNA inh HTS	rRNA inh HTS OD600	rRNA inh HTS RFP	HNF4A DNA FP	UCH37 inh	E coli growth	FGF22 binding	Beta2AR agonist	ALR inh
COc1ccccc1OCC(=O)OCn1c(SC)nnc(C)c1=O	·	·	·	-1.5	-0.4	0.69	·	0	30
O=C(CSc1ccc(S(=O)(=O)N2CCOCC2)cn1)Nc1ccc(F)c(F)c1	1	11	3.1	-5.9	4.2	0.68	i	-7	·
Nn1c(SCC(=O)NC2CCCCC2)nnc1-c1ccc(Cl)cc1	·	·	·	-0.5	2.0	0.68	·	-4	-15
Cc1[nH]n(-c2ccccc2)c(=O)c1Sc1ccc(Cl)cc1	·	·	·	-0.2	3.7	0.68	·	-11	22
Cc1ccccc1NC(=O)OCc1cccnc1Sc1ccc(Cl)cc1	·	·	·	4.9	4.3	0.79	·	-17	-2

Not all compounds are listed; the hit share may differ from the screen's.
